High-throughput results (PubChem BioAssay)
Beta2AR agonist – beta2AR agonists driving receptor internalization, primary screen, cell-based, FAP fluorogen, flow cytometry | Beta-2 adrenergic receptor (Homo sapiens), P07550 | Am2.2-beta2AR cells; reference of the scale not given here | response, % (no concentration beside the values) | hit rate 0.43% among 340,000;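 active means response above a set limit, near 3 SD of response in nonfluorescent compounds, cut at about 42% in these data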;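 further: stock transfer was 100 nL into about 11 µL; a reference agonist was the positive control; negative values mostly stem from fluorescent compounds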
LANA-H2A inh – blockers of LANA interaction with H2A/H2B – biochemical, FP readout, HTS, primary screen; hit rate 0.6% among 320,000; cell-free LANA-H2A/H2B peptide, fluorescence polarization; inhibition, % (test concentration not listed); Protein LANA1 (Human herpesvirus 8 type P (isolate GK18)), Q9QR71; in the data active means inhibition mostly above about 10%, no sharp cut-off; inactive means mostly below about 6.7%;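 further: stock transfer was 7.5 nL into about 10 µL; 0% = median of vehicle wells and 100% = median of positive control wells; one replicate is shown; the record names a cut of 25% in any replicate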
Ecoli growth – E. coli growth inhibition, primary screen, OD600 | Escherichia coli growth, 23 h; stronger effect = lower value | OD600 absorbance (test concentration not listed) | hit rate 0.21% among 330,000;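 active means OD600 absorbance below the run mean of sample wells minus 3.6 SD, in any replicate, cut at about 0.56 in these data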;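 further: stock transfer was 300 nL into about 60 µL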
HNF4A DNA FP – change in binding of human HNF4A to DNA, primary screen, biochemical, fluorescence polarization, FITC-DNA; 1 h; activity change, % at 10 µM; hit rate 0.3% among 360,000; Hepatocyte nuclear factor 4-alpha (Homo sapiens), P41235; in the data active means activity change above about 30%, passing the limit was not always enough;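 further: controls were the assay level and a saturating level of protein; the project sought stronger binding though the title names inhibitors; some compounds called inactive have numbers as strong as hits; positive values seem to mean higher polarization but the record does not say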
Target sequence (P41235 whole entry, looked up): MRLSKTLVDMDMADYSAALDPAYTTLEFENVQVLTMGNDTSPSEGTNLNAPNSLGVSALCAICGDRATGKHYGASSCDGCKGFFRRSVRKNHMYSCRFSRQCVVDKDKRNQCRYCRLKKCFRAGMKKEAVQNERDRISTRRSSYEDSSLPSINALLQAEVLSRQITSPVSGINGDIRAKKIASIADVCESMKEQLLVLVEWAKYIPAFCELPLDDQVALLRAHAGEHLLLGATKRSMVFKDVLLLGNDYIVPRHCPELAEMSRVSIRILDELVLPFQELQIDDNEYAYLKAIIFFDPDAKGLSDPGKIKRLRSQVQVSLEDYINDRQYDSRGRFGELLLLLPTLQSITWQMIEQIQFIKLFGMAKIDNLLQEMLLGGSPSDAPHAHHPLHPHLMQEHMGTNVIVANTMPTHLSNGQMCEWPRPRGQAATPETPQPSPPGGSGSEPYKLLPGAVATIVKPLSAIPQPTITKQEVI
Vif TR-FRET – inhibitors of Vif binding to APOBEC3G peptide, primary screen, biochemical, TR-FRET, GST-Vif 1-94, biotin-A3G peptide, dose response retest (AID 1117319); Virion infectivity factor (Human immunodeficiency virus type 1 group M subtype B (isolate …; TR-FRET GST-Vif / biotin-A3G peptide binding; higher % means a stronger effect; test concentration not given here; strong numbers were not always called active; inhibition, %; hits with a dose series show IC50 in µM; hit rate 0.57% among 260,000;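 active means above the screen mean plus three standard deviations and confirmed in dose response; inconclusive means results disagree or hit not tested in dose response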;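 further: Vif residues 1-94 fused to GST binding biotinylated APOBEC3G peptide 110-148; 0% = full assay without inhibitor and 100% = GST in place of GST-Vif; retest series ran down from 100 µM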
Bfl-1 A1 inh – caspase 3/7 activation in MEF A1-2A-BIM cells, primary screen, A1 inhibitor project, cell-based, luminescence, HTS | Caspase-Glo 3/7 luminescence, 3 h; percent of clofoctol response, vehicle zero | caspase activation, % (no concentration beside the values) | hit rate 0.066% among 330,000 | AID 2462, 2010;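 active means over half of replicate activation scores above 10%, or exactly half above 10 with the replicate mean above 10; inconclusive means replicate mean below 10 yet half the replicates above 10; inactive means over half of replicates below 10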;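 further: wells of about 30 µL received 50 nL stock; many hits fall short of the cut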
UCH37 DUB inh – inhibitors of human UCH37 deubiquitinase, primary screen, biochemical, Ub-AMC cleavage, fluorescence; inhibition, % (concentration not given with the values); hit rate 0.33% among 330,000; Ubiquitin carboxyl-terminal hydrolase isozyme L5 (Homo sapiens), Q9Y5K5; purified proteasome/UCH37;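 active means mean of two replicates above 20%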;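 further: 0% = compound-free wells with enzyme and 100% = wells lacking proteasome; stock transfer was 100 nL into about 20 µL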
Target sequence (Q9Y5K5 whole entry, looked up): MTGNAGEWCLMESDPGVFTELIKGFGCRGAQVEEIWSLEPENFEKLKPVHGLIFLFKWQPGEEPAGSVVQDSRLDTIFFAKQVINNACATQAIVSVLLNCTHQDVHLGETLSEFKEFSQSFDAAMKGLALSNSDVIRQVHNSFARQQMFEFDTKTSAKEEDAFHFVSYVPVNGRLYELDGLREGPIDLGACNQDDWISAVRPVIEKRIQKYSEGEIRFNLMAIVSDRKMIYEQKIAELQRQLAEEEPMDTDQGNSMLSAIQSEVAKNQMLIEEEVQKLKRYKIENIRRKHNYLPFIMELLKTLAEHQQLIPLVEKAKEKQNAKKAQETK
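Material: human UCH37 enzyme supplied as purified proteasome complex / Amount: 0.15 nM proteasome as dispensed / Buffer or medium: pH 7.4 Tris-HCl (50 mM) with ovalbumin, ATP-MgCl2, DTT / Times: preincubation 30 min, reaction 25 min, room temperature / Technique: AMC fluorescence from Ub-AMC cleavage, excitation 355 nm, emission 460 nm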
Active calls of the source: *; ? = inconclusive; nt = not tested or not shown; & = joins results of further samples.

SMILES	Beta2AR agonist	LANA-H2A inh	Ecoli growth	HNF4A DNA FP	Vif TR-FRET	Bfl-1 A1 inh	UCH37 DUB inh
CC1NC(=O)N(C)[C@@H]2NC(=O)N(C)C(c3ccc([N+](=O)[O-])cc3)[C@@H]12 (stereo partly specified)	-3.3	-4.1	nt	3.5	-8.2%	0.4	-1.0
O=C(CNS(=O)(=O)c1ccc(Cl)cc1)OCC(=O)N1CCCc2ccccc21	0.6	-0.4	0.701	-1.1	14.2%	1.0	4.2
CC(C)N=C(Nc1ccc(Cl)cc1)c1cccnc1	-1.5	2.6	0.659	4.2	-1.3%	0.6	1.0
COc1cc(CNC(=O)C2CCC(=O)N(C3CCCCCC3)C2)cc(OC)c1 (stereo unspecified)	1.6	3.2	0.748	-1.3	nt	0.8	2.7
Cc1cc(NC(=O)COC(=O)c2cccc(O)c2)no1	14.6	1.8	0.653	2.3	-0.4%	1.4	2.5
COC(=O)C1=C(C(=O)OC)C(C(=O)OC)C(C(=O)OC)C(C(=O)OC)(C(=O)OC)C(C(=O)OC)=C1C(=O)OC (stereo unspecified)	7.1	nt	nt	4.5	-5.5%	nt	nt
Cc1ccc(NC(=O)c2ccco2)nc1	-9.1	nt	0.693	2.5	4.3%	nt	2.3
COc1ccc(NC(=O)Cc2ccccc2F)cc1S(=O)(=O)N1CCCCC1	0.4	nt	0.713	2.0	nt	nt	0.4
COc1ccc(/C=C/C(=O)Nc2cccc(N3CCOCC3)c2)cc1OC	11.0	-2.6	0.694	0.9	-9.3%	-0.2	8.9
N#C/C(=C\c1cccc(Br)c1)C(=O)N1CCCCC1	17.2	1.0	0.69	4.2	nt	0.0	1.3
O=C(O)C1CSC(c2coc3ccccc3c2=O)N1 (stereo unspecified)	4.5	2.8	0.619	-2.6	6.7%	-0.6	-7.3
CCCCOC(=O)C1CCCC(C)N1 (stereo unspecified)	10.0	-4.1	0.666	3.4	1.1%	-0.4	0.5
CCOC(=O)N/N=C/c1cc(C)n(-c2cccc3ccccc23)c1C	-0.6	4.0	nt	1.0	7.5%	-0.3	nt
Cc1ccc(N)cc1S(=O)(=O)N(C)C	-1.6	-7.7	0.72	1.4	10.0%	-0.7	2.8
O=C(Nc1cccc(Cl)c1)c1ccc(OC(=S)N2CCOCC2)cc1	-6.3	2.1	0.721	2.1	10.5%	3.3	-0.3
CC(=O)Nc1nc(C)c(C(C)=O)s1	-0.6	-3.4	0.714	-0.8	-2.8%	-0.1	4.4
O=C(Nc1ccccc1O)c1ccc(Cl)cc1	2.6	3.2	0.605	0.9	-3.2%	-2.8	3.0
Cc1ccc(NC(=O)c2sc3nc(C)cc(C)c3c2N)cc1	0.3	-2.8	0.665	-3.2	17.6%	-0.8	-402.9
C(#Cc1ccccc1)C[N+]1(CC#Cc2cccc3ccccc23)CCCC1	-6.7	1.2	0.624	3.6	nt	-0.9	7.4
COc1ccc(Cl)cc1C(=O)NCCS(=O)(=O)N1CCN(c2ccccc2F)CC1	-4.7	0.4	0.655	-0.5	-1.1%	0.2	2.2
CCNc1nc(NCC)nc(N/N=C(\C)c2ccc(OC)cc2)n1	1.8	1.0	nt	2.3	-8.3%	-0.5	nt
COc1ccc(Cn2c(=O)c3cccnc3n(Cc3ccc([N+](=O)[O-])cc3)c2=O)cc1	4.0	7.3	0.691	-1.1	nt	0.2	-0.9
CC(=O)c1ccc(NC(=O)C2CCN(S(=O)(=O)c3cccs3)CC2)cc1	3.3	1.1	0.646	1.3	-8.8%	-0.5	3.6
O=C(CSc1nnc(-c2ccco2)n1Cc1ccco1)N1CCOCC1	1.2	2.6	0.721	1.2	0.0%	-0.6	5.4
CC(C)(C)c1cc(CSC(=S)NC2CCS(=O)(=O)C2)c(Br)c(C(C)(C)C)c1 (stereo unspecified)	16.6	5.8	0.722	-3.0	1.8%	-0.8	7.2
C=C(C)[C@@H]1CC=C(CN2CCC(N3CCC(C(=O)N4CCCC4)CC3)CC2)CC1	-3.3	-5.6	0.677	1.1	?	-0.3	-0.2
C/C(=N\NC(=S)NCc1ccccc1)c1ccccc1F	-4.7	-6.8	nt	0.4	-5.7%	-0.4	nt
CCOc1cc(N2CCOCC2)c(OCC)cc1NC(=O)Cc1ccccc1OC	12.7	-4.5	0.733	-1.0	31.7%	0.7	-0.7
Cc1ccc(S(=O)(=O)N2CCCOC2CNC(=O)C(=O)NCCc2c[nH]c3ccccc23)cc1 (stereo unspecified)	24.1	-5.5	0.678	1.6	10.8%	0.1	-1.5
C=C1CCN(CC(=O)OC)S(=O)(=O)c2ccccc21	8.1	2.5	0.62	1.6	nt	1.0	1.1
CCOC(=O)N1CCN(S(=O)(=O)c2ccc(C(=O)NNc3nc4c(C)cc(C)cc4s3)cc2)CC1	nt	0.9	0.757	-2.6	nt	-0.3	7.2
CCC(C)NCCOCCOc1ccc(C)cc1Br (stereo unspecified)	2.6	0.7	0.675	2.0	7.0%	1.0	0.2
Cn1nccc1C(=O)Nc1ccc2c(c1)OCO2	2.9	-4.3	0.689	-0.9	-8.1%	-9.1	1.6
Cc1cccc(C)c1NC(=O)c1cccnc1	-0.8	-1.1	0.624	3.2	nt	0.5	1.6
CC(=O)c1c(C)[nH]c(C(=O)Nc2c(C)n(C)n(-c3ccccc3)c2=O)c1C	7.4	-1.1	0.709	-3.5	11.7%	0.1	4.5
COc1ccc(CCn2c(C)cc(C(=O)COC(=O)c3ccc(NC(=O)CC#N)cc3)c2C)cc1	12.1	-9.7	0.697	23.7	nt	-0.5	3.0
Cc1ccc(/C=N/NC(=O)c2cccc(S(=O)(=O)N3CCOCC3)c2)o1	0.7	2.7	nt	4.7	1.0%	0.7	nt
CCOC(=O)N1CCN(C(=O)CNC(=O)c2ccccc2F)CC1	-8.0	3.5	0.639	-3.1	-8.7%	-0.8	1.3
CCc1cccc(CC)c1-n1c(SCC(=O)N2CCc3ccccc3C2)nnc1-c1cccnc1	2.2	-4.1	0.658	19.6	-3.8%	-0.3	5.5
COc1ccc(N2C(=O)CCC(C(=O)N3CCC(C(N)=O)CC3)C2c2ccc(F)cc2)cc1 (stereo unspecified)	1.6	0.0	0.715	0.9	-1.3%	0.1	-0.4
COc1cccc(C(=O)OCC(=O)NC23CC4CC(CC(C4)C2)C3)c1	-5.9	0.1	0.683	-0.2	-1.9%	-0.1	3.1
S=C(Nc1ccc(Oc2ccccc2)cc1)NC1CCCCCC1	-11.6	-6.3	0.66	-0.6	nt	0.0	-2.7
c1ccc(-c2ccccc2-c2nc(-c3ccncc3)no2)cc1	-4.0	-0.7	0.71	0.1	6.2%	0.8	0.4
Cc1ccc(NC(=O)CCc2nc3ccccc3[nH]2)cc1C	-12.3	2.0	0.673	-0.4	-4.3%	-0.2	1.3
O=C(CNC(=O)c1ccc2c(c1)OCCO2)N/N=C/c1ccc([N+](=O)[O-])cc1	3.0	2.5	nt	1.1	2.0%	-0.4	nt
Cc1ccc(C2(C)NC(=O)N(CC(=O)NC(=O)NC(C)(C)C)C2=O)cc1 (stereo unspecified)	0.2	-2.6	0.648	-1.3	nt	1.7	4.6
COC(=O)c1ccc(S(=O)(=O)NNC(=O)COc2ccc(C)cc2)cc1	-5.0	-0.2	0.679	0.3	nt	1.0	4.3
NS(=O)(=O)c1ccc(CCNC(=O)CNC(=O)c2ccc(Oc3ccccc3)cc2)cc1	-7.9	-7.8	0.719	2.5	nt	-1.4	3.1
C=CCC1C=CCC(CC=C)N1C(=O)c1ccccc1[N+](=O)[O-] (stereo unspecified)	0.8	2.8	0.718	4.0	-1.3%	0.6	1.1
O=C1OC(Cc2ccccn2)C(O)=C1C1=NCCCN1 (stereo unspecified)	1.5	nt	0.673	-2.0	5.4%	-0.1	2.3
O=S(=O)(NCc1csc(-c2cccnc2)n1)c1ccc(Br)cc1	-8.0	-8.3	0.72	-2.0	2.8%	0.7	0.8
Cc1nc(NC(=O)C2CC2)sc1C	5.8	-0.7	0.675	3.1	-0.2%	-0.7	0.2
CCCc1cc(=O)oc2c(C)c3occ(C)c3cc12	6.0	3.9	0.709	-4.3	-2.6%	-1.4	-16.3
Cc1cc(C)n(-c2nnc(C)n2/N=C/c2cc(Br)ccc2OCc2ccccc2)n1	6.7	2.4	nt	-0.5	4.7%	-0.8	nt
O=C(/C=C/c1ccco1)NC(=S)Nc1ccccn1	-4.0	1.9	0.723	-0.3	?	-0.7	5.7
CC(C)NS(=O)(=O)c1ccc(CCC(=O)NCc2ccccn2)cc1	-4.7	6.2	0.62	-0.3	5.9%	0.5	3.3
CC(=O)Nc1cccc(NC(=O)C(=O)NCC(c2ccco2)N2CCc3ccccc3C2)c1 (stereo unspecified)	8.6	-3.2	0.66	3.8	-1.0%	0.5	2.2
O=C(O)C1CC(C(=O)O)SS1 (stereo unspecified)	-2.1	nt	0.66	-1.4	-2.9%	nt	2.4
CCOC(=O)N1CCN(C(=O)CC(C)S(=O)(=O)c2cc3c(cc2C)NC(=O)CO3)CC1 (stereo unspecified)	-1.2	2.8	0.697	0.7	nt	0.0	2.3
CCN(CC)C(=O)C1CCCN(C(=O)CCn2nnnc2CN2CCOCC2)C1 (stereo unspecified)	4.9	-2.5	0.677	2.6	-1.0%	-0.5	1.3
Following part
SMILES	Beta2AR agonist	LANA-H2A inh	Ecoli growth	HNF4A DNA FP	Vif TR-FRET	Bfl-1 A1 inh	UCH37 DUB inh
Nc1nc(SCCOc2ccccc2)n[nH]1	1.0	1.5	0.701	2.9	3.7%	0.0	1.4
CC(C)N(C(=O)[C@H]1C[C@H](CC(=O)NCCN2CCOCC2)C(=O)N2CCc3c([nH]c4cc(CCC(=O)N(C)C)ccc34)[C@]12C)C(C)C	-0.4	nt	0.716	4.9	-5.0%	nt	1.0
CCOC(=O)c1[nH]c2c(c1-c1ccccc1)C(=O)CC(c1ccc(OC)c(OC)c1)C2 (stereo unspecified)	1.3	-0.2	0.756	3.0	-4.6%	0.4	4.6
CC(=O)N1N=C(c2ccc3ccccc3c2)OC1(C)C	-7.0	-0.3	0.681	1.0	nt	-0.8	-112.4
O=C1N/C(=N/Nc2ccccc2)S/C1=C\c1ccccc1	10.0	0.7	0.73	14.1	21.2%	-1.5	-4.2
CCN(CC)S(=O)(=O)c1ccc(Cl)nc1	5.4	-4.2	0.716	-4.5	-6.3%	0.0	2.3
CCC1CN(C(=O)N2CCC(C(=O)NCCc3ccc(OC)c(OC)c3)CC2)c2ccccc2O1 (stereo unspecified)	9.4	-4.3	0.69	2.0	nt	0.3	2.6
Cc1oc2cc3oc(=O)c(CCC(=O)NCCCC(=O)O)c(C)c3cc2c1C	10.4	-1.4	0.6	-1.3	2.1%	0.0	-58.0
N=c1nc(-c2ccccc2)ccn1O	-2.6	-1.0	0.743	1.2	-1.3%	1.0	7.2
COc1cccc(-c2nc(NC(C)C)c3ccccc3n2)c1O	1.7	2.7	0.694	-0.9	18.0%	-0.4	6.2
Cc1cccc2sc(NC(=O)CN(C)S(=O)(=O)c3cccs3)nc12	0.6	nt	0.759	1.1	-2.0%&-1.6%	-0.4	3.0
Cn1c(SCCOc2ccccc2F)nc2ccccc2c1=O	-3.4	2.2	0.674	-5.6	-16.8%	0.8	0.5
